Bioassay records deposited in PubChem BioAssay by several laboratories.
MLL AF4-AF9 inh – MLL-AF4/AF9 protein interaction inhibition. inhibition, % at 10 µM. AlphaScreen, biotin-AF4 peptide binding to FLAG-AF9. 350,000 tested, 0.47% active;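 active means every replicate reaching a set inhibition limit, whatever the replicate mean, cut at about 25% in these data; inconclusive means mean inhibition reaches that limit but some replicates miss it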;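 further: 0% = plate neutral control median and 100% = total signal loss; the record names both 10 and 1 µM as test concentration; the first replicate is given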
Vif TR-FRET – inhibitors of Vif binding to APOBEC3G peptide, primary screen, biochemical, TR-FRET, GST-Vif 1-94, biotin-A3G peptide, dose response retest (AID 1117319); TR-FRET GST-Vif / biotin-A3G peptide binding; higher % means a stronger effect; test concentration not given here; strong numbers were not always called active; inhibition, %; hits with a dose series show IC50 in µM; 260,000 tested, 0.57% active;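 active means above the screen mean plus three standard deviations and confirmed in dose response; inconclusive means results disagree or hit not tested in dose response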;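 further: Vif residues 1-94 fused to GST binding biotinylated APOBEC3G peptide 110-148; 0% = full assay without inhibitor and 100% = GST in place of GST-Vif; retest series ran down from 100 µM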
HNF4A DNA FP – change in binding of human HNF4 alpha to DNA; HNF4a-FITC DNA binding, fluorescence polarization, 1 h; AID 1224865; P41235; 360,000 tested, 0.3% active; activity change, % at 10 µM; in the data active means activity change above about 30%, passing the limit was not always enough;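 further: controls were the assay level and a saturating level of protein; the project sought stronger binding though the title names inhibitors; some compounds called inactive have numbers as strong as hits; positive values seem to mean higher polarization but the record does not say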
Target sequence (P41235 whole entry, looked up): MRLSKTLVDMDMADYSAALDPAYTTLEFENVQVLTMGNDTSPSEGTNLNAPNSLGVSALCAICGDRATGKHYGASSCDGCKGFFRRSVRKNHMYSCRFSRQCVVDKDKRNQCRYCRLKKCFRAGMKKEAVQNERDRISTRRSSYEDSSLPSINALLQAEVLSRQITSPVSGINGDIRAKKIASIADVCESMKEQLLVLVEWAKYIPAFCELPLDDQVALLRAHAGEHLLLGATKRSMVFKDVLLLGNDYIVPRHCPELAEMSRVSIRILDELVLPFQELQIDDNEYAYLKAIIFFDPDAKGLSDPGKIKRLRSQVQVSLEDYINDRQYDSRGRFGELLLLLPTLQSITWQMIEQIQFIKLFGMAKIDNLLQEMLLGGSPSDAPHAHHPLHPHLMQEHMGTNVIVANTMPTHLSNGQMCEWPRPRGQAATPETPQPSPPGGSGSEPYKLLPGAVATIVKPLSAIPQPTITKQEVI
Ecoli growth – blocks Escherichia coli growth | OD600, 23 h; active compounds read low | OD600 absorbance (concentration not given with the values) | 330,000 tested, 0.21% active | AID 1053175;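 active means OD600 absorbance below the run mean of sample wells minus 3.6 SD, in any replicate, cut at about 0.56 in these data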;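 further: stock transfer was 300 nL into about 60 µL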
Ecoli rRNA inh – inhibitors of bacterial rRNA selective over humanized ribosomes. GFP signal change (wild-type ribosome), % (test concentration not listed). E. coli WT GFP vs humanized-ribosome RFP mutants, fluorescence, 24 h; active compounds read low; DMSO median 0, no signal -100. 350,000 tested, 1.6% active;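 active means significant combined selectivity score with lowered wild-type GFP, culture density cut under 30%, mutant RFP and density less affected; inactive means any of these conditions unmet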; further: one replicate is shown; some compounds called inactive have numbers as strong as hits
FGF22 binding – FGF22 (human) thermal shift binding. AID 651658. recombinant FGF22 thermal shift, SYPRO orange fluorescence; percent of sucrose octasulfate shift, DMSO zero. calls only at 9.99 µM. 340,000 tested, 1.5% active. Q9HCT0;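 active means melting point raised past a set limit in the mean and every replicate; inconclusive means no clear call; three in four hits are not shown here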
Target sequence (Q9HCT0 whole entry, looked up): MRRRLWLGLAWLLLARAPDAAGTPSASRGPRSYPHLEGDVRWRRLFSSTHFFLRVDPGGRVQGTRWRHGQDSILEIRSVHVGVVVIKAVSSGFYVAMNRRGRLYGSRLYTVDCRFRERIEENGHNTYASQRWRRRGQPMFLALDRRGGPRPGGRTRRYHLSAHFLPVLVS
ALR inh – human ALR oxidase inhibition via reduced H2O2. P55789. purified ALR, DTT oxidation, H2O2 HRP-luminol luminescence. inhibition, % (no concentration beside the values). 290,000 tested, 3.8% active;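 active means mean and each replicate at 75% or more; inconclusive means only one of the two met; inactive means neither met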;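 further: stock transfer was 7.5 nL into about 7.5 µL; 0% = neutral wells and 100% = wells with inactivated enzyme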
Target sequence (P55789 whole entry, looked up): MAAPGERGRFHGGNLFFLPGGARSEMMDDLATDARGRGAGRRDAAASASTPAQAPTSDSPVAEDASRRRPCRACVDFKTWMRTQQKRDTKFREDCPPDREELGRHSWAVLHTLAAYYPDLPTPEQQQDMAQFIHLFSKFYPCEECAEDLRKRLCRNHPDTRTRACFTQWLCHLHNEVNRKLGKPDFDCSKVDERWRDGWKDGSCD
Ecoli rRNA inh OD600 – recorded beside Ecoli rRNA inh, whose call it bears; OD600 change, %; measured here: OD600 growth;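 optical density of the mix in the first replicate; 0 = DMSO median and -100 = no signal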
Ecoli rRNA inh RFP – further read-out of Ecoli rRNA inh, marked with its call; RFP signal change, %; measured here: RFP humanized mutant strains;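 first replicate; 0 = DMSO median and -100 = no signal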
* = called active by the depositor; i = inactive; ? = inconclusive; . = not tested or not shown; & = joins results of further samples. A portion of the library; count on the stated rates, not on these rows.

SMILES	MLL AF4-AF9 inh	Vif TR-FRET	HNF4A DNA FP	Ecoli growth	Ecoli rRNA inh	Ecoli rRNA inh OD600	Ecoli rRNA inh RFP	FGF22 binding	ALR inh
COc1ccccc1C(=O)NC1CCN(C(=O)Nc2ccc(F)cc2)CC1	4.7	.	2.7	0.655	-2.5	-0.7	-4.4	.	-5.4
O=Nc1c(O)[nH]c2ccc(Cl)c(Cl)c12	3.9	0.7%	0.3	0.575	-65.2	-77.6	-24.2	i	.
CCCCNC(=O)C1(C)CCC(=O)N1CCc1c[nH]c2ccccc12 (centres undefined)	-2.0	.	1.1	.	1.2	-3.2	0.7	i	.
O=C(Nc1cccc([N+](=O)[O-])c1)N1CCCc2ccccc21	3.5	.	1.6	0.62	8.2	1.9	-3.5	i	-20.9
Cc1cccc(Cc2cnc(N3C(=N)SC(C)C3=O)s2)c1 (centres undefined)	-1.1	-2.7%	0.8	0.696	-52.0	-78.7	-14.3	i	.
COC(=O)C1CCN(S(=O)(=O)CCNC(=O)c2ccc(F)cc2)CC1	-16.8	-0.4%	-0.9	0.666	7.8	18.8	-2.7	i	0.2
O=C(COC(=O)C1c2ccccc2Oc2ccccc21)NC1CCS(=O)(=O)C1 (centres undefined)	.	8.2%	0.1	0.673	.	.	.	.	7.4
COc1ccc(-c2ccc(=O)n(CC(=O)Nc3nnc(C(C)C)s3)n2)cc1OC	.	-1.2%	3.6	0.723	.	.	.	.	-4.9
NS(=O)(=O)c1ccc(N/N=C/c2ccc3c(c2)OCO3)c([N+](=O)[O-])c1	-0.4	?	1.9	.	10.1	0.6	4.0	i	-6.0
O=C(NCC[C@H]1CC[C@@H](NS(=O)(=O)c2ccc(Cl)cc2)[C@H](CO)O1)c1ccc2c(c1)OCO2	3.0	.	.	.	-1.1	-10.0	-1.5	i	.
O=C(O)[C@H](Cc1c[nH]c2ccccc12)Nc1ncccc1[N+](=O)[O-]	11.1	0.0%	-1.2	0.649	7.2	9.4	0.2	i	6.8
CCS(=O)(=O)Nc1ccc2c(c1)C(=O)N(C)[C@@H]1CC[C@@H](CC(=O)OC)O[C@H]1CO2	-3.5	.	.	.	0.1	1.2	-1.3	i	.
O=C(CSCc1ccc(Br)cc1)Nc1ccccc1C(=O)N1CCOCC1	0.7	5.5%	1.9	0.74	1.7	2.1	0.5	i	-9.0
COc1cccc(C(C)NC(=O)c2c(F)cccc2Cl)c1 (centres undefined)	0.2	-8.2%	2.5	0.743	15.4	14.8	-3.5	i	-4.9
C=CCn1c(SCC(=O)NCCc2ccccc2)nnc1C(C)NC(=O)c1cccs1 (centres undefined)	.	-2.8%	2.2	0.729	.	.	.	.	-2.1
CCN(CC(=O)Nc1ccc(NC(C)=O)cc1)C(=O)COc1ccccc1-c1ccccc1	1.4	-0.3%	3.4	0.649	-6.2	-8.7	-0.5	i	-0.8
COc1ccc(C(=O)N/N=C/c2ccc(OC(=O)c3cccc4ccccc34)c([N+](=O)[O-])c2)cc1	-3.0	.	-1.8	.	-1.0	-8.1	-6.1	i	.
O=C1CN(S(=O)(=O)c2ccccc2)c2ccccc2N1	-1.0	-4.5%	-0.8	.	-18.1	-2.0	-0.4	i	-5.4
Cc1cc(NC(=O)CN2CCN(S(=O)(=O)c3ccc4ccccc4c3)CC2)no1	.	6.8%	-1.6	0.704	.	.	.	.	-14.6
COc1ccc2[nH]c(=O)c(CN(CCCN3CCOCC3)C(=O)NCc3ccccc3)cc2c1	.	4.1%	-3.4	0.75	.	.	.	.	-8.8
Cc1ccc(C(=O)CCC(=O)OCC(=O)N(CC(C)C)c2c(N)n(Cc3ccccc3)c(=O)[nH]c2=O)cc1	0.7	-4.7%	5.0	0.622	11.4	6.0	-0.2	i	-1.7
C/C=C/c1ccc([C@@H]2[C@H](CO)N(CCC(F)(F)F)C23CN(C(=O)COC)C3)cc1	1.4	.	.	.	-1.0	1.0	0.0	i	.
Cc1c(C(=O)CN2CCSCC2)c2ccccc2n1C	.	0.2%	-3.1	0.711	.	.	.	.	-14.5
CNC[C@@H]1OCCCC[C@H](C)Oc2ccc(NC(=O)Nc3ccc(OC)cc3)cc2C(=O)N([C@H](C)CO)C[C@H]1C	4.0	.	.	.	8.7	8.3	0.5	i	.
CCN(c1ccc(C)cc1)S(=O)(=O)c1nnc(NC(=O)c2ccco2)s1	-0.2	.	-2.9	0.677	0.8	2.9	2.3	i	59.3
C=CCC[C@H](CCCCC)OC(=O)/C=C/[C@H](O)[C@@H](O)C[C@@H](O)CC=C	-5.1	.	-3.4	.	1.6	-6.3	-2.3	i	.
C=CCSc1nc(N)cc(=O)[nH]1	7.0	-3.4%	0.6	0.706	5.0	6.2	1.7	i	.
Cc1c(-c2nnnn2-c2ccc(F)cc2)cnc2cc3c(cc12)OCO3	.	13.4%	-2.1	0.703	.	.	.	.	.
Cc1cc(C)nc(SCCN(C)C)n1	-1.0	4.6%	2.0	0.651	14.7	10.8	0.9	i	-5.6
O=S(=O)(Nc1ccc(-n2cnnn2)cc1)c1ccccc1F	2.3	-2.2%	2.5	0.634	-4.7	-2.1	-0.9	i	.
CC1CCCN(S(=O)(=O)c2cccc([N+](=O)[O-])c2)C1 (centres undefined)	2.6	.	1.6	0.676	4.1	0.2	-3.1	.	.
O=C(Cc1ccc2c(c1)OCCO2)N1CCN(S(=O)(=O)c2ccccc2C(F)(F)F)CC1	14.6	.	-1.3	0.683	-16.1	-5.6	-10.8	i	-4.0
O=C(OCC(=O)N1CCN(C(=O)c2ccco2)CC1)c1ccccc1	0.8	0.3%	-1.2	0.689	2.3	-0.4	-1.4	i	.
CCCCc1cc(=O)oc2c(C)c(OCC(=O)N3CCC(C(N)=O)CC3)ccc12	-0.1	.	0.3	0.78	.	.	.	i	-16.5
N#C/C(=C(/O)CO/N=C/c1ccccc1Cl)c1nc2ccccc2[nH]1	-2.9	-3.0%	11.8	.	-0.3	2.6	-2.2	i	-0.3
COC(=O)C(Cc1cncn1COCc1ccccc1)NC(=O)OC(C)(C)C (centres undefined)	.	2.9%	0.3	0.694	.	.	.	.	-20.8
C/C=C/c1ccc(OCCn2cncn2)c(OC)c1	.	29.3%	0.9	0.708	.	.	.	.	-13.1
COC(=O)C(C(=O)OC)c1ncccc1NS(=O)(=O)c1ccc(C)cc1	.	.	3.1	.	-27.5	-40.8	-8.9	i	.
COc1ccccc1CCn1cnc(-c2cccc(F)c2)c1C(C)C	12.2	.	.	.	-55.0	-78.3	-17.0	i	.
COc1ccccc1CNC(=O)C1CCC(CNS(=O)(=O)c2ccc(NC(C)=O)cc2)CC1 (centres undefined)	0.0	-2.4%	3.0	0.66	3.1	7.5	-3.5	i	1.3
Cc1ccc(-c2nn(-c3ccccc3)cc2C(=O)NCC2CCCO2)cc1 (centres undefined)	1.4	-9.4%	-1.8	0.708	-13.4	-7.8	1.1	i	5.0
Cc1ccc(CC#N)c(-c2c(CC#N)ccc(C)c2C)c1C	-2.7	-10.7%	3.0	.	-0.8	-8.1	-0.7	i	.
Cc1ccc(COc2ccc(C)nc2[N+](=O)[O-])cc1	-3.3	14.6%	-2.6	0.633	-1.5	-27.3	-4.0	i	.
COCC#Cc1ccc2c(c1)O[C@@H](CN(C)C(=O)CC1CC1)[C@H](C)CN([C@H](C)CO)S2(=O)=O	-1.7	.	.	.	-2.5	-9.8	-0.4	i	.
CCOc1ccc(CCNC(=O)c2cc(C)on2)cc1OCC	0.5	-4.9%	-0.6	0.687	10.5	8.4	1.6	i	2.2
CCOC(=O)N1CCN(CC(O)COc2ccc3c(c2)CCC3)CC1 (centres undefined)	-3.5	.	2.7	0.692	-4.2	-9.0	-2.5	i	-8.8
C[C@H](CO)N1C[C@H](C)[C@@H](CN(C)S(=O)(=O)c2ccc(F)cc2)Oc2ccc(NC(=O)CCN3CCOCC3)cc2C1=O	-0.7&-0.6	.	2.4	.	5.8&12.9	10.4&9.3	-4.8&6.2	i	-5.0
COc1ccc(C(=O)N2CCCCC2c2cc(C(=O)NCc3cccnc3)no2)cc1 (centres undefined)	-1.5	.	-2.1	.	11.4	11.5	0.9	i	.
[2H]C(CCOS(N)(=O)=O)c1ccc(C(C)(C)C)cc1 (centres undefined)	0.0	.	6.3	0.647	-34.3	-35.5	-1.6	i	-2.9
C=CCOC1=CS(=O)(=O)N(Cc2ccc(Br)cc2)c2ccc(Br)cc21	-2.5	1.3%	-2.3	0.738	-4.8	1.8	2.3	i	.
CN(C)CCCC1(O)c2ccccc2CCc2ccccc21	0.2	5.5%	0.8	0.68	10.9	-0.7	-1.4	i	-0.7
CO[C@H]1CN(C)C(=O)c2cc(NC(=O)Nc3cc(F)ccc3F)ccc2OC[C@@H](C)NC[C@H]1C	-0.1	.	.	.	-1.5	5.0	1.4	i	.
Cn1cnc2c(oc3ccccc32)c1=O	-1.2	.	2.9	0.596	.	.	.	i	7.2
C[C@H]1CN([C@@H](C)CO)C(=O)c2cccc(NC(=O)c3nc4ccccc4s3)c2O[C@@H]1CN(C)Cc1ccc(C(F)(F)F)cc1	-2.5	.	.	.	-0.1	4.2	-1.9	i	.
Cc1ccc(-c2ccnc(=S)[nH]2)cc1	7.3	-8.2%	1.0	0.67	15.4	5.4	2.5	i	99.6*
O=C(Cn1c(=O)n2ncnc2c2c3c(sc21)CCCC3)c1ccccc1	.	-17.6%	7.2	0.706	.	.	.	.	-1.4
COc1ccc(NC(=O)n2ncc3c(C)cccc32)cc1	0.2	-4.2%	0.9	0.691	-0.4	4.8	-5.4	i	.
O=C(CSc1nnc(Cc2ccccc2)o1)N1CCCc2ccccc21	.	-3.2%	3.6	0.662	-6.9	-1.8	2.3	.	-3.9
C[C@H](CO)N1C[C@H](C)[C@@H](CN(C)Cc2ccc(Cl)c(Cl)c2)Oc2ccc(NC(=O)C3CCCCC3)cc2C1=O	1.4	.	.	.	-1.0	-0.2	1.2	i	.
CC(C)(C)C(=O)OCc1cn(-c2ccccc2)nn1	.	-0.1%	3.5	0.694	.	.	.	.	-3.7

Continued.
SMILES	MLL AF4-AF9 inh	Vif TR-FRET	HNF4A DNA FP	Ecoli growth	Ecoli rRNA inh	Ecoli rRNA inh OD600	Ecoli rRNA inh RFP	FGF22 binding	ALR inh
O=C(Nc1ccncc1)c1cc2ccccc2o1	.	10.2%	0.1	0.728	.	.	.	.	1.9
c1ccc(OCc2nn3c(Cn4nnc5ccccc54)nnc3s2)cc1	.	2.0%	-5.0	0.675	.	.	.	.	8.9
CCC1(CC)NC(=O)N(CC(=O)N2N=C(c3ccc(Cl)cc3)CC2c2ccco2)C1=O (centres undefined)	12.4	.	5.5	0.717	-25.4*	-14.6*	1.2*	i	0.3
C[C@H]1CN([C@@H](C)CO)C(=O)c2cc(-c3cccc(F)c3)cnc2O[C@H]1CN(C)Cc1ccccc1	-0.9	.	.	.	1.4	3.6	2.5	i	.
COc1cc(-c2nnc(COC(=O)c3cc(C)nc4ccc(C)cc34)o2)cc(OC)c1OC	.	1.2%	4.8	0.785	.	.	.	.	.
Cc1c(NC(=S)NC(=O)c2ccccc2Cl)c(=O)n(-c2ccccc2)n1C	-1.7	.	2.7	0.704	11.8	17.6	-0.4	i	13.1
CCCc1cc(=O)[nH]c(SCC(=O)Nc2ccc(OC(F)F)cc2)n1	.	3.2%	-0.9	0.705	-0.8	1.0	-1.4	.	-8.5
O=C1C=C(O)CC(c2ccc(Cl)c(Cl)c2)C1 (centres undefined)	.	8.2%	2.8	0.711	.	.	.	.	1.7
